Screening results deposited in PubChem by NMMLSC.
Bead autofluor = flagged as autofluorescent in microsphere protease counterscreen | compound autofluorescence counterscreen, microsphere flow cytometry; stronger effect = higher value | fluorescence intensity (test concentration not listed) | 360,000 compounds, 3.1% hits | AID 624483;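 active means at least 3 SD above the mean of all compounds, about 16000 in these data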;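 further: 100 nL of 1 mM stock went into each well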
Numbers without * were called inactive. The list is partial. The share of hits here may be higher or lower than overall.

SMILES | Bead autofluor
O=S1(=O)CC(N2CCN(Cc3ccccc3F)CC2)CN1Cc1cn(Cc2ccc(C(F)(F)F)cc2)nn1 (stereo unspecified) | 5960
CC1(C(=O)NS(=O)(=O)c2ccccc2)CCN1C(=O)CCc1ccc(Cl)cc1Cl (stereo unspecified) | 3604
O=S(=O)(CCN1CCN(c2ccccc2O)CC1)c1ccc(Cl)cc1 | 3904
COc1ccccc1Cc1c(-c2ccccc2)nc2ccc(Cl)cn12 | 5484
COc1ccc(C(C)NC(=O)C2CCN(CCOc3ccc(Cl)cc3Cl)CC2)cc1OC (stereo unspecified) | 3986
CC(CC(=O)Nc1ccc2c(c1)c(=O)n(C)n2-c1ccccc1)c1ccccc1 (stereo unspecified) | 3198
Nc1cccc(-c2cccc3nncn23)c1 | 3615
CC(=O)c1ccc(NC(=O)CN2CCC(NC(=O)c3ccccc3C)CC2)cc1 | 3799
CC1(C(=O)NS(=O)(=O)c2ccccc2Cl)CCN1C(=O)Cc1ccccc1 (stereo unspecified) | 3276
O=C(CCNC(=O)C1CCN(S(=O)(=O)c2ccccc2)CC1)NCc1cccnc1 | 2941

3 entries from above, set out differently.
Molecule,Bead autofluor
CC(=O)c1ccc(NC(=O)CN2CCC(NC(=O)c3ccccc3C)CC2)cc1,3799
CC1(C(=O)NS(=O)(=O)c2ccccc2Cl)CCN1C(=O)Cc1ccccc1 (stereo unspecified),3276
O=C(CCNC(=O)C1CCN(S(=O)(=O)c2ccccc2)CC1)NCc1cccnc1,2941

Following part.
SMILES | Bead autofluor
Nc1nc(COC(=O)c2ccco2)nc(Nc2ccccc2)n1 | 4251
COc1ccc(-c2cc3c(c4c2ccn4C)C2CCC3C2)cc1F (stereo unspecified) | 3355
COc1ccc(CN(C)C(=O)c2ccc(OCC(=O)Nc3cccc(C(F)(F)F)c3)c(OC)c2)cc1 | 3913
COc1ccccc1CNC(=O)C1CCCN1S(=O)(=O)c1ccc2c(c1)C(C)(C)C(=O)N2C (stereo unspecified) | 5016
Cn1c(CCN2CCCC2)nc2cc(NS(=O)(=O)c3ccc(F)cc3)ccc21 | 8083
CCCCCNC(=O)c1[nH]c(C(F)(F)F)nc1-c1ccccc1 | 5310
CC(=O)Nc1cccc(-c2ccnc3c2CC(C)(C(=O)Nc2cccc(C(F)(F)F)c2)O3)c1 (stereo unspecified) | 3560
CCN(CC)c1nc(C=Cc2ccc(N(C)C)cc2)c2nccnc2n1 | 12766
FC(F)(F)c1cccc(NC2=NCCS2)c1 | 2947
Cc1cc(CNC[C@H]2O[C@@H](n3ccc(=O)[nH]c3=O)[C@H](O)[C@@H]2O)no1 | 5790
CCN(CC)C(=O)C1=C(C)N(Cc2ccc(OC)cc2)C(=O)C(CC(=O)NC(c2ccccc2)c2ccccc2)C1 (stereo unspecified) | 3661
CN(C)CCC1(c2ccccc2)CCN(C)C1=O (stereo unspecified) | 3904
C[C@@H]1CN([C@H](C)CO)C(=O)CCCn2nncc2CO[C@H]1CN(C)C(=O)c1ccc2ccn(C)c2c1 | 3822
COc1ccc(N2CCN(C(=O)c3[nH]c(C(F)(F)F)nc3-c3ccccc3)CC2)cc1 | 4267
O=C(c1cccs1)N1C[C@@H](n2cc(C3CC3)nn2)[C@H](O)C[C@@H]1c1ccccc1 | 3334
C[C@@H]1CN([C@@H](C)CO)C(=O)c2cc(N(C)C)ccc2O[C@@H](C)CCCCO[C@@H]1CN(C)S(=O)(=O)c1cccs1 | 3608
COc1cccc(CNC(=O)[C@@H]2CCCN2C(=O)[C@H]2CCCCN2)c1 | 6318
CCc1ccc2c(c1)NC(=O)C2(C)Cc1ccc(Cl)s1 (stereo unspecified) | 3715
COc1cccc(CNC(=O)[C@@H]2CCCN2C(=O)[C@@H]2CCCN2C(=O)c2cccc(OC)c2)c1 | 5279
CC(=O)Nc1ccc(NC(=O)C2Cc3c(-c4cccc(F)c4)ccnc3O2)cc1 (stereo unspecified) | 3840
Cc1cc(C)c2cc(C#N)c(N3CCNCC3)nc2c1 | 3844
CCCNC(=O)C1(C)CCCN(Cc2ccc(C(F)(F)F)cc2)C1 (stereo unspecified) | 2938
O=C(C[C@@H]1C[C@H]2c3cc(NC(=O)C4CCC4)ccc3O[C@H]2[C@@H](CO)O1)NCc1ccc(-c2ccccc2)cc1 | 4168
CCC(=O)N1CCC1(C)C(=O)Nc1ccc(OC(F)F)cc1 (stereo unspecified) | 3670
CCNC(=O)C1(C)CCCN(Cc2ccc(-c3ccccc3)o2)C1 (stereo unspecified) | 3858
COc1ccccc1C(=O)NC(=S)Nc1ccc(N2CCOCC2)cc1 | 3536
CC(=O)Oc1ccc(Cn2c(C)c(C(=O)NCc3ccccc3C(F)(F)F)sc2=O)cc1 | 5469
O=C1CC(c2ccccc2)NC(=S)N1 (stereo unspecified) | 3938
COc1ccc(NC(=O)N(C)[C@H]2C[C@H]3c4[nH]c5ccccc5c4CCN3C[C@H]2[C@H](C)O)cc1 | 3005
CNc1ccc2ncc(-c3cccc(C(=O)N(C)C)c3)n2n1 | 3290

Reprinted at random: four compounds from above, in no set order.
SMILES | Bead autofluor
COc1ccccc1C(=O)NC(=S)Nc1ccc(N2CCOCC2)cc1 | 3536
Cc1cc(C)c2cc(C#N)c(N3CCNCC3)nc2c1 | 3844
CCCNC(=O)C1(C)CCCN(Cc2ccc(C(F)(F)F)cc2)C1 (stereo unspecified) | 2938
CC(=O)Oc1ccc(Cn2c(C)c(C(=O)NCc3ccccc3C(F)(F)F)sc2=O)cc1 | 5469

(further entries)
SMILES | Bead autofluor
Cc1cccc(CN2CCN(C3CN(Cc4ccccc4)S(=O)(=O)C3)CC2)c1 (stereo unspecified) | 5877
CC(C)C1C(=O)N(Cc2cn(CC3CCCCC3)nn2)CCS(=O)(=O)N1Cc1ccc(-c2ccncc2)cc1 (stereo unspecified) | 3713
CC1(C(=O)NS(=O)(=O)C2CC2)CCCN(C(=O)c2ccc3ccccc3c2)C1 (stereo unspecified) | 3950
c1ccc2ncc(-n3ccnc3)cc2c1 | 5790
CC(C)Sc1nc(-c2cccs2)nc2cc(Cl)ccc12 | 5786
CCOC(=O)c1cccc(C2=C(CNC(=O)c3ccncc3)[C@H]3CC[C@@H](C2)N3Cc2ccccc2)c1 | 3482
O=C(c1ccco1)N1CCN(C2CN(C3CCCCC3)S(=O)(=O)C2)CC1 (stereo unspecified) | 5459
CC(=O)NCCNc1nc2cc(-c3ccc(C)cc3)sc2c(=O)n1C | 3593
CC(C)C[C@@H]1COc2cccc(N3CCC[C@H]3CO)c2S(=O)(=O)N1 | 4602
COc1cccc(-c2cc(NC=O)c3ncc(-c4ccc(F)c(Cl)c4)n3c2)c1 | 3802
O=C1C(N2CCOCC2)=Cc2cccc3cccc1c23 | 3557
O=C1NC(=O)C2(CCCc3ccc([N+](=O)[O-])cc32)N1 (stereo unspecified) | 3907
CC(O)(c1ccc(F)c(F)c1)c1nc(/C=C/c2ccc(C(F)(F)F)cc2)cs1 (stereo unspecified) | 3895
O=C(Nc1cccc(-c2cccc(Cl)c2)c1)C1CCN(Cc2nccs2)CC1 | 3969
CC(CCC(=O)O)C1CCC2C3CCC4CC(O)CCC4(C)C3CC(O)C12C (stereo unspecified) | 5355
CC1C(=O)N(Cc2cn(Cc3ccco3)nn2)CCS(=O)(=O)N1Cc1ccc(-c2ccccc2)cc1 (stereo unspecified) | 3008
COC(=O)C1=C(C)NC(=O)NC1c1ccc(OC)c(OC)c1 (stereo unspecified) | 2877
OC(c1ccc(F)cc1)c1nc(-c2csc3ccccc23)cs1 (stereo unspecified) | 3854
Cc1ccc(S(=O)(=O)N2C[C@@]3(O)Cn4c(=O)ccc(=O)n4C[C@@]3(OC(=O)NCc3ccccc3F)C2)cc1 | 5493
CCOC(=O)C1=CC[C@@H](c2ccccc2)N(S(=O)(=O)c2ccc(C)cc2)[C@H]1c1cccc(OC)c1 | 6136
COc1ccc(CN2C[C@@H](CO)O[C@@H](n3cnc4c(N5CCCC5)ncnc43)C2)cc1 | 3611
CCCCNC(=O)C1c2ccccc2OCC(=O)N1Cc1ccco1 (stereo unspecified) | 4014
COc1ccc(NC(=O)C2(C)Cc3c(-c4ccc(NC(C)=O)cc4)ccnc3O2)cc1OC (stereo unspecified) | 4094
CC(N)c1csc(Nc2nncc3ccccc23)n1 (stereo unspecified) | 4118
COc1ccc(NC(=O)c2c(C)noc2C)cc1S(=O)(=O)N1CCCCC1 | 3652
CCOC(=O)[C@]12CCCC=C1N(Cc1ccc3c(c1)OCO3)C(=O)[C@H](CC(=O)N1CCC(c3ccccc3)CC1)C2 | 5962
COc1ccc(C(c2nnnn2-c2ccc3c(c2)OCCO3)N2CCC3(CC2)C(=O)NCN3c2ccccc2)cc1 (stereo unspecified) | 6289
COc1cccc(-c2cnc(C(O)c3cccc(OC)c3)[nH]2)c1 (stereo unspecified) | 2865
O=C1OCC/C1=C\NCCCCCCCCN/C=C1\CCOC1=O | 2849
C[C@@H]1CN([C@@H](C)CO)C(=O)c2cc(NC(=O)C3CCCCC3)ccc2O[C@@H](C)CCCCO[C@@H]1CN(C)C(=O)CCCN(C)C | 3557
Cn1nnnc1SCCNC(=O)C1CCC(=O)N(Cc2cccc(C(F)(F)F)c2)C1 (stereo unspecified) | 4441
O=C(O)COc1ccc(NC(=O)c2ccc3c(c2)C(=O)N(CC2CCCO2)C3=O)cc1 (stereo unspecified) | 3978
COc1cccc(CN2CCC2(C)C(=O)Nc2cccc3cccnc23)c1F (stereo unspecified) | 2934
CN(C)C(=O)c1cccc(-c2cc(NC=O)c3ncc(-c4ccc(F)c(Cl)c4)n3c2)c1 | 3653
COc1ccc(CN2Cc3cc(-c4ccc(OC)cc4)ccc3-n3nncc3C2)cc1 | 5702
CCCNC(=O)C1(C)CCCN(C(=O)c2ccc(F)cc2Cl)C1 (stereo unspecified) | 3954
COC(=O)C[C@H]1C[C@@H]2c3cc(NS(=O)(=O)c4ccc(OC)cc4)ccc3O[C@@H]2[C@H](CO)O1 | 3134
Cc1ccc(S(=O)(=O)N2CCC(=O)N([C@H](COCc3ccc(C(F)(F)F)cc3)Cc3ccccc3)CC2)cc1 | 5772
O=C(NCCC(F)(F)F)c1cccc2c(-c3ccc(F)c(F)c3)coc12 | 3578
O=C1OCCC1=CN1CCCCC1 | 3824
CCc1nc2ccc(C(=O)NCCc3c[nH]c4ccccc34)cn2c1N(C)CCCc1ccccc1 | 3530
COC(=O)c1ccc2nc(-c3ccc(Cl)cc3)c(Cc3ccsc3)n2c1 | 5043
CN(C)CCCNc1nc2cc(-c3ccc(F)cc3)sc2c(=O)n1C | 3868
CC(CC(=O)Nc1ccc2c(c1)c(=O)n(C)n2Cc1ccc(Cl)cc1)C(F)(F)F (stereo unspecified) | 3865
COc1ccc(Cl)cc1-c1cc(C(=O)Nc2ccc(C(C)(C)C)cc2)[nH]n1 | 2967
CCOC(=O)C1=C[C@@H](CC)N(S(=O)(=O)c2ccccc2)[C@H]1c1ccccc1 | 5880
CCOC(=O)[C@]12CCC=C1N(CCC1=CCCCC1)C(=O)[C@H](CC(=O)NCC1CCCCC1)C2 | 5919
N#Cc1ccccc1C[C@H](N)C(=O)NC[C@H]1O[C@@H](n2cnc3c(N)ncnc32)[C@H](O)[C@@H]1O | 6102
COc1ccc(CN2C(=O)C(CC(=O)NC3CCCC3)CC(C(=O)N3CCOCC3)=C2C)cc1 (stereo unspecified) | 4291
CCc1nc2c(OCCC3CCCCC3)cccn2c1N(C=O)Cc1ccc(OC)cc1 | 2909

Further compounds
SMILES | Bead autofluor
O=C(Nc1cccc2ccccc12)NC1CC1 | 4399
O=C(c1[nH]c(C(F)(F)F)nc1-c1ccccc1)N1CCN(c2ncc(C(F)(F)F)cc2Cl)CC1 | 6123
CC1(C)N=C(N)N=C(N)N1c1cccc(CC(=O)Nc2ccccc2)c1 | 4296
COC(=O)c1ccc2nc(-c3ccccc3)c(Cc3ccc(OC)cc3C)n2c1 | 7119
CCOc1ccc(OCCC(=O)OCC(=O)c2c(N)n(CC(C)C)c(=O)n(C)c2=O)cc1 | 3865
Cc1ccc(Cl)cc1-c1cc(C(=O)N2CCN(c3ccncc3)CC2)[nH]n1 | 3786
CCCC(C)(C)C(=O)N1CCC1(C)C(=O)NS(=O)(=O)c1ccc(Cl)cc1 (stereo unspecified) | 2777
Cc1ccccc1-c1cc2nc(OCC3CCCO3)n(C)c(=O)c2s1 (stereo unspecified) | 3404
CCCCCCCCN1C(=O)[C@H](CC(=O)N2CCN(C(=O)OCC)CC2)C[C@@]2(C(=O)OC)CCCCC=C12 | 6452
C[C@H]1CN([C@@H](C)CO)C(=O)CCCn2cc(nn2)CO[C@@H]1CN(C)C(=O)Nc1ccc(-c2cccs2)cc1 | 4167
O=C(NCC(=O)N1CCN(Cc2ccccc2)CC1)c1ccccc1Cl | 3441
CN1OC[C@@H]2CN(C(=S)NCCc3ccccc3)[C@H](c3ccc(N4CCCCC4)cc3)C[C@@H]21 | 8876
CCN(CC)C(=O)C1=C(C)N(CCC2=CCCCC2)C(=O)C(CC(=O)NCCN2CCOCC2)C1 (stereo unspecified) | 3133
COC(=O)c1ccc(Cn2c(C)c(C(=O)NCc3ccc(Cl)c(Cl)c3)sc2=O)o1 | 5994
COc1cccc(C#Cc2ccc3c(c2)O[C@H](CN(C)S(=O)(=O)c2ccccc2F)[C@H](C)CN([C@H](C)CO)S3(=O)=O)c1 | 3732
Cc1cc(Br)cn2c(Cc3ccsc3)c(-c3ccco3)nc12 | 5714

4 entries from above, in markdown:
| Molecule | Bead autofluor |
| --- | --- |
| CCN(CC)C(=O)C1=C(C)N(CCC2=CCCCC2)C(=O)C(CC(=O)NCCN2CCOCC2)C1 (stereo unspecified) | 3133 |
| COC(=O)c1ccc(Cn2c(C)c(C(=O)NCc3ccc(Cl)c(Cl)c3)sc2=O)o1 | 5994 |
| COc1cccc(C#Cc2ccc3c(c2)O[C@H](CN(C)S(=O)(=O)c2ccccc2F)[C@H](C)CN([C@H](C)CO)S3(=O)=O)c1 | 3732 |
| Cc1cc(Br)cn2c(Cc3ccsc3)c(-c3ccco3)nc12 | 5714 |
